Source: PubChem (National Center for Advancing Translational Sciences (NCATS))
Marburg entry: blocks Marburg virus binding or cell entry; Marburg virus pseudotype entry/binding inhibition, cell-based; control for the full effect not named in the record; many of its hits are not listed in these tables; Potency, µM (highest dose often 49.2 µM), inactives show at the highest dose activity change, negative = inhibition, most hits filed as inhibitors; 18,000 compounds, 6.5% hits; AID 720532; active means well fitted inhibition curve with a large enough effect; inconclusive means small, poorly fitted or top-dose-only effect; inactive means no such curve, though single readings can be large or run the other way; tested in HEK293 cells; further: luciferase read-out
Lassa entry: inhibitors of Lassa virus binding or entry into cells; Lassa virus pseudotyped entry inhibition, cell-based qHTS; control for the full effect not named in the record; many of its hits are not listed in these tables; Potency, µM (top dose mostly 49.2 µM), without a hit: at the highest dose activity change, negative = inhibition, usual class: inhibitors; 18,000 compounds, 4.1% hits; active = well fitted inhibition curve with a large enough effect; inconclusive = small, poorly fitted or top-dose-only effect; inactive = no such curve, though single readings can be large or run the other way; tested in HEK293 cells; further: luciferase read-out
* = called active by the depositor; u = inconclusive; x = no result given; & = joins results of further samples; [ ] = another dose, or the depositor's remark. On the % scale 0 is the no-effect control and ±100 the full control effect; potency means the concentration at half of the fitted maximal effect. Only part of the results is shown; count on the stated rates, not on these rows.

Start of the data: the first 3 records, to show the layout:
SMILES | Marburg entry | Lassa entry
C[C@@H]1CN(c2c(F)c(F)c3c(=O)c(C(=O)O)cn(C4CC4)c3c2F)C[C@H](C)N1 | -1.5%&9.3% | -17.0%&-7.6%
CC1CCCC(C)N1NC(=O)c1ccc(Cl)c(S(N)(=O)=O)c1 (configuration not stated) | 5.3%[17.8 µM] | -8.6%[17.8 µM]
CCCSP(=S)(OCC)Oc1ccc(Cl)cc1Cl (configuration not stated) | 8.7% | -16.6%

Results, from the first entry:
SMILES | Marburg entry | Lassa entry
C[C@@H]1CN(c2c(F)c(F)c3c(=O)c(C(=O)O)cn(C4CC4)c3c2F)C[C@H](C)N1 | -1.5%&9.3% | -17.0%&-7.6%
CC1CCCC(C)N1NC(=O)c1ccc(Cl)c(S(N)(=O)=O)c1 (configuration not stated) | 5.3%[17.8 µM] | -8.6%[17.8 µM]
CCCSP(=S)(OCC)Oc1ccc(Cl)cc1Cl (configuration not stated) | 8.7% | -16.6%
O[C@H]1CN(CC2CCCCC2)[C@@H](c2ccc(Cl)cc2)C[C@H]1n1cc(-c2ccc(F)cc2)nn1 | u | -6.9%
COc1ccc(-c2nc3c(c4c2C[C@H](c2ccccc2)OC4)CN(S(=O)(=O)c2ccc(NC(C)=O)cc2)CC3)c(C)c1 | -6.0%[8.59 µM] | x
CCCCCC(=O)N1C[C@@H](O)[C@H](n2cc(C3CC3)nn2)C[C@H]1c1ccc(Cl)cc1 | u | 13.5%
O=C(Nc1n[nH]c2cc(-c3cc(F)ccc3F)ccc12)C1CC1 | u | u
CCc1nccc2c1nc(-c1nonc1N)n2CC | u | u
CN(C)c1ccc(/C=C2\C(=O)Nc3ccccc32)cc1 | -25.0%&7.1% | 14.1µM*
Cn1ccnc1C1CCCCN1C(=O)CN1Cc2ccccc2OC(c2ccccc2F)C1 (configuration not stated) | u | 2.0%
CCN1C(=O)c2ccccc2C1Nc1ccc(OCCN2CCCCC2)cc1 (configuration not stated) | -23.3% | -9.7%
CC(C)CON=C1C[C@@H](O)[C@@H](O)[C@@H]2[C@H]3C(=O)N(c4ccc(F)cc4F)C(=O)[C@@H]3CC[C@@H]12 | -13.2%[8.59 µM] | 5.4%[8.59 µM]
CCNC1(c2cccs2)CCCCC1=O (configuration not stated) | 4.1%[17.8 µM] | -9.3%[17.8 µM]
COc1ccccc1[C@@H]1C(c2ccccc2)=NN(c2ccccc2)[C@H]1C(=O)N1CCOC1=O | -20.7% | -24.7%
O=c1cc(CN2CCN(c3ccccc3F)CC2)c2c(ccc3ccccc32)o1 | -27.4% | 9.7%
NC(C(=O)O)c1cc(O)cc(O)c1 (configuration not stated) | -11.2% | -1.1%
COC(=O)C1=C(C)[C@H](O)[C@@H](C)[C@](C)(c2cc(OC)c(C)c(OC)c2COc2ccccc2)O1 | u | 6.3%
COC(=O)CC=C[C@@H](C)[C@H](OC)c1cc(OC)ccc1Br | 3.5%[8.59 µM] | -2.5%[8.59 µM]
COc1cc(OC)c(CN2CCOc3ccc(CN4CCC(O)CC4)cc3C2)c(OC)c1 | 14.1µM* | u
Nc1ncc2[nH]cnc2n1 | 7.5% | -17.8%
C[C@@H]1CC[C@H]2C(=O)N(Cc3cccc([N+](=O)[O-])c3)C[C@H](O)CN2[C@@H]1c1cccc(Br)c1 | -10.0%[8.59 µM] | x
FC(F)(F)c1cc(NC(=S)NC(c2ccccc2)c2ccccc2)cc(C(F)(F)F)c1 | u | -43.6%
COC(=O)CC=C[C@@H](C)[C@@H](C=NO[C@H](C)CN1CCCc2nc(C)c(C)cc21)N[S+](=O)([O-])c1ccc(C)cc1 | u | 14.1%[8.59 µM]
CCCCOCC1CN(CCCC)S(=O)(=O)c2c(cccc2N2CCCC2)O1 (configuration not stated) | u | -20.3%
CO[C@H]1C=C2CCN(C)[C@@H]2[C@@H]2c3cc4c(cc3C(=O)O[C@H]21)OCO4 | 1.2%[17.8 µM] | 4.1%[17.8 µM]
Cc1c(N)nc(C(CC(N)=O)NCC(N)C(N)=O)nc1C(=O)NC(C(=O)NC(C)C(O)C(C)C(=O)NC(C(=O)NCCc1nc(-c2nc(C(=O)NCCCN[C@@H](C)c3ccccc3)cs2)cs1)C(C)O)C(O[C@@H]1O[C@@H](CO)[C@@H](O)[C@H](O)[C@@H]1O[C@H]1O[C@H](CO)[C@@H](O)[C@H](OC(N)=O)[C@@H]1O)c1cnc[nH]1 (some centres not stated) | 3.16µM* | 3.55µM*
COc1ccc2c(c1)CCc1cnc(-n3ncc(C(=O)N4CCN(CCO)CC4)c3C3CC3)nc1-2 | 6.7% | 0.9%
O=C(O)c1cc(O)c2c(c1)[C@H]([C@H]1c3cc(C(=O)O)cc(O)c3C(=O)c3c(O[C@@H]4O[C@H](CO)[C@@H](O)[C@H](O)[C@H]4O)cccc31)c1cccc(O[C@@H]3O[C@H](CO)[C@@H](O)[C@H](O)[C@H]3O)c1C2=O | u | -24.6%
COc1cc2c(cc1OC)[C@@H]1C(=O)c3ccc4c(c3OC1CO2)CC(C(C)C)O4 (some centres not stated) | u | -26.4%
CC(NC(=O)c1cccnc1)c1nnc2n1CCN(Cc1ccc(-c3ccccc3Cl)o1)CC2 (configuration not stated) | 24.3% | -6.0%
Nc1ccc(-c2ccc3ccccc3n2)cc1 | 2.0% | -13.6%
COc1ccc([C@H]2C[C@H](O)[C@@H](n3cc(-c4ccc(F)cc4)nn3)CN2C(=O)c2cccs2)cc1 | -4.9% | 2.7%
Cc1cc(=O)oc2cc(NC(=O)C(CCCCN)NC(=O)C(CC3CCCCC3)NC(=O)OCC3c4ccccc4-c4ccccc43)ccc12 (configuration not stated) | 22.0% | 5.3%
O=C(c1cc(-c2ccccc2)on1)N1CCOc2ccc(CN3CCOCC3)cc2C1 | -11.8% | -27.8%
OC[C@H]1O[C@@H](n2cnc3c(NC4CCCC4)ncnc32)[C@H](O)[C@@H]1O | 3.2% | -17.2%
O=C(NCCN1CCOCC1)c1cnn(-c2nccc(-c3ccccc3C(F)(F)F)n2)c1C1CC1 | -11.2% | -8.0%
COc1ccc(C(=O)NCC2Cc3cccc(-c4ccc(S(C)(=O)=O)cc4)c3O2)c(OC)n1 (configuration not stated) | -1.2% | 11.6%
CC1(C)SC2C(NC(=O)COc3ccccc3)C(=O)N2C1C(=O)O (configuration not stated) | 12.2% | -4.8%
CC(N)CCCP(=O)(O)O (configuration not stated) | 11.3% | 9.1%
Cc1nc2c(O)cccc2c(=O)[nH]1 | 3.9% | -12.2%
CCN1C(=NCc2cc(OC)c(OC)c(OC)c2)N[C@@H](c2ccccc2)[C@H](C(=O)OC)[C@H]1C | 27.6%&-17.8%[8.59 µM] | -20.9%&8.1%[8.59 µM]
C#C[C@]1(O)CC[C@H]2[C@@H]3CCC4=CC(=O)CC[C@]4(C)[C@H]3CC[C@@]21C | 24.9%&-26.0% | 10.8%&-0.6%
S=P(N1CC1)(N1CC1)N1CC1 | u | u
COC(=O)[C@@]1(C)CCC[C@@]2(C)c3ccc(O)c(C(C)C)c3CCC21 (some centres not stated) | 12.6µM* | 11.2µM*
Cc1ccc(S(=O)(=O)NCc2ccccc2)cc1 | -19.7% | -19.9%

Arranged by SMILES length (low to high): 3 of the compounds above.
SMILES | Marburg entry | Lassa entry
CCNC1(c2cccs2)CCCCC1=O (configuration not stated) | 4.1%[17.8 µM] | -9.3%[17.8 µM]
Cc1ccc(S(=O)(=O)NCc2ccccc2)cc1 | -19.7% | -19.9%
COc1ccc([C@H]2C[C@H](O)[C@@H](n3cc(-c4ccc(F)cc4)nn3)CN2C(=O)c2cccs2)cc1 | -4.9% | 2.7%

Continuation.
SMILES | Marburg entry | Lassa entry
C[C@@H]1[C@@H](c2ccccc2)Oc2c(Cl)cccc2S(=O)(=O)N1Cc1ccc(F)cc1F | 8.1% | 3.5%
CCCN1CCCC[C@H]1C(=O)Nc1c(C)cccc1C | -16.4% | -16.5%
CC(C)=CCN1C(=O)[C@]2(OCCC=C[C@H]2C)c2c(Br)cccc21 | 53.5%[activator][8.59 µM] | -1.0%[8.59 µM]
COC(=O)[C@H](Cc1ccccc1)NC(=O)O[C@@H]1C(=O)c2ccc(OC)cc2O[C@H]1c1ccc2c(c1)OCO2 | 3.2% | -7.5%
C=C1C2=CC(=O)OC(c3ccoc3)[C@]2(C)CCC1[C@]1(C)C=CC(=O)C(C)(C)C1CC(=O)OC (some centres not stated) | -40.7% | 0.6%
N[C@H](CCP(=O)(O)O)C(=O)O | 26.4%&13.0% | 3.3%&0.5%
CC1(C)CC23C(=O)CCC(O)C2(C)CCC13 (configuration not stated) | -13.3% | -7.9%
COc1cc(-c2cnc3ccccc3c2)cc2c1OCCN(S(=O)(=O)C[C@]13CC[C@H](CC1=O)C3(C)C)C2 | -5.4% | -13.9%
C=CCN(CC=C)Cc1cc(=O)oc2ccccc12 | 20.4% | 16.5%
O=C(Cc1nc2ccccc2[nH]1)N1CCC(n2c(C3CCC3)nc3cccnc32)CC1 | -19.9% | -17.9%
CCN1CCCC1CNC(=O)c1cnn(-c2nccc(-c3cc4ccccc4o3)n2)c1C1CC1 (configuration not stated) | u | -17.5%
COc1cccc(-c2cc(=O)c3cc(NC(=O)c4ccc(C)cc4)ccc3[nH]2)c1 | u | u
COc1ccccc1NC(=O)OC[C@@H]1CSCCS(=O)(=O)N1 | 59.4%[activator] | 50.7%[activator]
O=c1c(O)c(-c2ccccc2)oc2cc(O)ccc12 | 54.2%[activator] | 44.6%[activator]
COc1cc(=O)n2c(c1C(=O)N(C)C(C)c1ccco1)CCN(C(=O)c1ccc(C(C)=O)cc1)CC2 (configuration not stated) | -4.9% | -16.8%

Continued.
Results follow in this order: Marburg entry, Lassa entry
> CC(C)C1NC(C(=O)O)Cc2c1[nH]c1ccccc21 (configuration not stated)
→ -5.5%, -1.1%
> COc1cc(CNCc2cc3ccc(F)cc3nc2N2CCOCC2)cc(OC)c1OC
→ -9.5%, -10.2%
> CCN1C(=NCCc2ccccn2)NC(c2cccs2)C(C(=O)OC)=C1C (configuration not stated)
→ u, 0.2%[8.59 µM]
> C/C=C1\C[C@H](C)[C@@](O)(CO)C(=O)OCC2=CCN3CC[C@@H](OC1=O)[C@@H]23
→ 11.8%[17.8 µM], 16.5%[17.8 µM]
> CN(Cc1ccco1)c1nc(-c2cccc(C#N)c2)nc2ccccc12
→ -16.1%, 0.5%
> CCC1CN2CCC1CC2C(O)c1ccnc2ccccc12 (configuration not stated)
→ -27.6%, -13.1%
> CCN1C(=NCc2cc(OC)c(OC)c(OC)c2)NC(c2ccccc2)C(C(=O)OC)=C1C (configuration not stated)
→ 43.0%&21.9%[activator][8.59 µM], -2.9%&3.4%[8.59 µM]
> COc1ccc(-c2ccc(CN3C(C(C)C)C(=O)N(Cc4cn(CCC5OCCO5)nn4)CCS3(=O)=O)cc2)cc1OC (configuration not stated)
→ -16.3%, 13.7%
> Cc1ccc(C(=O)NCCc2nnc3n2CCN(Cc2ccc4ccccc4c2)CC3)c(C)c1
→ 8.8%, 6.0%
> CCN(Cc1ccc(Cl)nc1)/C(=C/[N+](=O)[O-])NC
→ -9.7%, -13.7%
> COC(=O)C1=C(C(=O)OC)[C@@H]2N(C)c3ccc(OC)cc3[C@@]23C[C@@H](C(=O)OC)N(C(=O)NCCBr)C3=N1
→ u, -12.0%[8.59 µM]
> COc1cccc(CNC(=O)c2c(OC)cc(=O)n3c2CCN(C(=O)c2ccccc2Cl)CC3)c1
→ -3.2%, -10.8%
> CCCC(=O)O[C@]1(C(=O)COC(=O)CC)[C@@H](C)C[C@H]2[C@@H]3CCC4=CC(=O)C=C[C@]4(C)[C@@]3(F)[C@@H](O)C[C@@]21C
→ 11.2µM*, u
> CC(C)=CCC/C(C)=C/CC/C(C)=C/CCC(=O)OC/C=C(\C)CCC=C(C)C
→ 16.7%, -7.9%
> O=C1C[C@@H]2CCN3C(=O)CCC[C@@H]([C@H]23)[C@@H]1Cc1ccccc1
→ 3.0%, 20.1%
> COc1cc(-c2cc(C)c3cccc(OC)c3n2)cc2c1OCCN(C(=O)CCn1ccc(C)n1)C2
→ -0.6%, 35.5µM*
> Cc1cccc(CNc2cc(-c3ccccc3CN(C)C)ncn2)c1
→ 6.31µM*, -4.4%
> CC(C)C[C@@H](CC(=O)N[C@@H](CCCN)CC(=O)N[C@@H]1CCNC[C@H]1C(=O)N[C@H](CC(=O)N[C@@H](CCC(=O)O)CC(=O)O)CC(C)C)NC(=O)[C@@H]1CNCC[C@H]1N
→ -8.5%, -3.0%
> CC(=O)OCC1=C[C@H]2[C@@H]3C(C)(C)[C@]3(OC(=O)Cc3ccccc3)C[C@@H](C)[C@]2(O)[C@@H]2C=C(C)C(=O)[C@@]2(O)C1
→ -26.8%, 0.0%
> COc1ccc(NC(=O)C[C@H]2C(=O)N(c3ccc(OC)cc3)C[C@@H]2C)cc1
→ 19.1%, 17.5%
> COc1cc2c(cc1OC)C(C(=O)c1ccc(OC)c(OC)c1O)=NCC2
→ -2.9%, -8.3%
> CCCCC[C@@H](/C=C/C=C\C/C=C\C/C=C\CCCC(=O)O)OO
→ 10.9%&0.8%, 3.4%&1.8%
> COC(=O)C12C/C=C\Cc3ccccc3[C@@H]1CNC2=O (some centres not stated)
→ 2.0%, -3.0%
> NCCCCCCCCCCNCCCN
→ u, -3.0%
> COc1ccc2c(c1)O[C@@H](c1cccc(C(F)(F)F)c1)[C@H](OC(=O)Nc1ccc(OC(F)F)cc1)C2=O
→ 7.9%, u
> NS(=O)(=O)c1ccc(N=Nc2c(O)[nH]c3ccc(-c4cnco4)cc23)cc1
→ 36.4%[activator], u
> O=S(=O)(CCOCc1ccc(-c2ccc3ncnc(Nc4ccc(OCc5cccc(F)c5)c(Cl)c4)c3c2)o1)c1ccccc1
→ -29.6%, 42.5%
